Sfp inh: inhibitors of Bacillus subtilis Sfp phosphopantetheinyl transferase | AID 1490 | Q9F4F7 | 310,000 compounds, 3.5% hits | Potency, µM, for inactives: max response, negative = inhibition, actives largely listed as inhibitors | Biochemical Sfp PPTase activity, qHTS; active = well fitted inhibition curve with a large enough effect; inconclusive = small, poorly fitted or top-dose-only effect, or another doubt; inactive = no such curve, though single readings can be large or run the other way;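 also: the enzyme is Sfp with the accession as filed and its product quenches rhodamine fluorescence; potency is read from the fitted curve at half-maximal effect; 0% = enzyme reaction without inhibitor and -100% = no enzyme wells; top concentration of the series not given in the record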
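Fluorescence-quenching assay: 15 nM Sfp-PPTase preincubated 15 min at room temperature with compound, then 5 uM rhodamine-CoA and 12.5 uM BHQ-2-labelled YbbR peptide added. Fluorescence (ex 525/em 598 nm) read at start and after 30 min; difference gives rate.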
CtBP-E1A blk: inhibitors of CtBP/E1A interaction | AlphaScreen GST-E1A/His-CtBP binding, 1536-well; active compounds read low; control for the full effect not named in the record | activity change, % (no concentration beside the values) | 340,000 compounds, 0.49% hits | AID 651724; in the data active means activity change below about -65%; inconclusive means about -30% to -65%; inactive means above about -30%; also: % is scaled to controls: 0 for no effect and ±100 for the full control effect
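Homogeneous bead-based format: GST-tagged E1A captured on glutathione donor beads, His-tagged CtBP on nickel acceptor beads; compounds precede bead addition by 2 h at 37 °C.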
gsp agonist: activates gsp, the McCune-Albright syndrome mutation. 340,000 compounds, 0.13% hits. Potency, µM (doses to about 76.9 µM), without a hit: at the top dose activation (cAMP increase), usual class: activators. gsp mutant cells, cAMP HTRF, 30 min; control for the full effect not named in the record. AID 624287; active = well fitted activation curve with a large enough effect; inconclusive = small, poorly fitted or top-dose-only effect, or another doubt; inactive = no such curve, though single readings can be large or run the other way; cell line not stated here;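 also: phosphodiesterase inhibitor Ro 20-1724 added with compounds to block cAMP breakdown; potency is read from the fitted curve at half-maximal effect; nearly all actives have a fitted effect of over 60% in size; about a fifth of the inactives were tested at one dose only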
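Cells in DMEM/10% FBS with G418 were pretreated with compounds in DMSO plus […] (300 uM stock) for 30 min at 37C. cAMP was measured by HTRF (cAMP-d2 plus anti-cAMP antibody-K) after 30 min at room temperature.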
ClpP mod: qHTS Assay for Activators of ClpP; ATP-dependent Clp protease proteolytic subunit (Bacillus subtilis (strain 168)), P80244; purified B. subtilis ClpP, FRET peptide cleavage, 20 min; Potency, µM (titrated, usually from 57.5 µM), for inactives: at the highest dose activity change, negative = active; 340,000 compounds, 1.9% hits; AID 651965, 2013; active = well fitted falling curve with a large enough effect; inconclusive = small, poorly fitted or top-dose-only effect; inactive = no such curve, though single readings can be large or run the other way; also: potency is read from the fitted curve at half-maximal effect; the source files actives as falling curves though it sought activators and does not explain the sign; nearly all actives have a fitted effect of over 65% in size; many hits overshoot -100%
Target sequence (P80244 whole entry, looked up): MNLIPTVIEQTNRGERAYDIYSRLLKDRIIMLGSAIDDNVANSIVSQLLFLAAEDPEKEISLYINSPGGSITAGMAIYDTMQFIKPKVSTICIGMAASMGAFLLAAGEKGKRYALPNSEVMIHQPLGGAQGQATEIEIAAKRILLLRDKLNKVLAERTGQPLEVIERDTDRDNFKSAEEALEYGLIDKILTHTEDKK
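FRET quenching reversal measured ClpP activation: 10 microg/mL B. subtilis ClpP at pH 8 with the FRET-FV decapeptide, read at 430 nm after 320 nm excitation. The 20-min minus 0-min signal was scaled between DMSO/no-enzyme wells and ADEP (5.8 microM final).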
gsp antagonist: gsp mutant antagonism; gsp-mutant cells, cAMP HTRF, 30 min; control for the full effect not named in the record; Potency, µM (doses to about 76.9 µM), for the others: at the top dose activity change, negative = inhibition, usual class: inhibitors; 340,000 compounds, 0.4% hits; active = falling curve of any shape with a large fitted effect; inconclusive = falling curve, mostly with a smaller effect; inactive = flat or rising curve; cell line not stated here;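 also: intracellular cAMP measured with PDE inhibitor Ro 20-1724 present during compound exposure; potency is read from the fitted curve at half-maximal effect; % is scaled to controls: 0 for no effect and ±100 for the full control effect; nearly all actives have a fitted effect of over 65% in size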
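HTRF cAMP read-out (cAMP-d2 plus anti-cAMP antibody-K in lysis buffer, 30 min RT). Before lysis, cells are exposed to compounds with […] for 30 min at 37C in DPBS containing Ca/Mg, BSA and Tween 20.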
TRPV1 PAM: potentiators of human vanilloid receptor 1 (TRPV1). Q8NER1. TRPV1-expressing cells, Fluo-8 calcium influx, capsaicin EC20 potentiation; host cell line not named in the record; control for the full effect not named in the record. potentiation, % at 8.33 µM. 320,000 compounds, 0.02% hits. AID 540277; active means potentiation above 80%; inconclusive means 30% to 80%; inactive means below 30%; also: 0% is about no effect
Target sequence (Q8NER1 whole entry, looked up): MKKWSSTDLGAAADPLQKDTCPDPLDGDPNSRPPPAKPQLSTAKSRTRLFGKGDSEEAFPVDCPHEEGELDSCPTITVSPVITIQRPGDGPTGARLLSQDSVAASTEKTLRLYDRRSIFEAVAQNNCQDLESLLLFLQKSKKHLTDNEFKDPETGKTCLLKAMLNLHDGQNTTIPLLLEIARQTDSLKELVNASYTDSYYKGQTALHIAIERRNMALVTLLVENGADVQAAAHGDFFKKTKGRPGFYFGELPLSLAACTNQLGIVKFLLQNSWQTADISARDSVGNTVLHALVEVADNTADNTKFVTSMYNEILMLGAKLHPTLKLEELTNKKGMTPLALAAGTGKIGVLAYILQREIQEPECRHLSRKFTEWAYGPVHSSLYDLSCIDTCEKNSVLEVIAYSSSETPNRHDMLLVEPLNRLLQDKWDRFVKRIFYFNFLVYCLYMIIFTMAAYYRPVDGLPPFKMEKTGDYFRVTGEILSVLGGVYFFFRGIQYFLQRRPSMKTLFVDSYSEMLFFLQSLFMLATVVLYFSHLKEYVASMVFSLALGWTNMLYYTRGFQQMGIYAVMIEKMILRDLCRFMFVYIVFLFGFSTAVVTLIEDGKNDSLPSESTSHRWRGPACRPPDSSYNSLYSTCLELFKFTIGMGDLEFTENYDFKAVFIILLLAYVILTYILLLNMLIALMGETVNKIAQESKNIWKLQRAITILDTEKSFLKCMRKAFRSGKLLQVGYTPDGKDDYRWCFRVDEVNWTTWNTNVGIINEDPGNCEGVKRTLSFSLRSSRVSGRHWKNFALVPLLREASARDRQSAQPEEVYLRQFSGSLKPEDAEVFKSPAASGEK
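Cells expressing TRPV1 were dye-loaded with Fluo-8 and read kinetically: 10 s baseline, 3 min after compound (agonist portion), then 2 min after EC20 capsaicin (allosteric enhancer portion). Calcium-bound dye fluorescence at 480/520 nm.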
Menin MLL FP FL: inhibitors of human menin-MLL interaction, wild-type MLL peptide; Fluorescence polarization, fluorescein-MLL peptide displacement from menin; FP activity change, % at 61.4 µM; 290,000 tested, under 10 active; AID 1766; inconclusive = falling polarisation curve, or a change in total fluorescence; inactive = total fluorescence flat and polarisation flat or rising; no compound was filed as active; the % refers to the polarisation; negative = inhibition;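 also: % of control where 0% means no effect; inhibitors lower the polarisation; unlabelled MLL peptide was the positive control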
* marks the source's active call; other numbers are inactive results; ? = inconclusive; . = not tested or not shown; & = joins results of further samples; [ ] = remark or other dose. Rows are unselected (roughly 5.3% active in at least one column).

entry | Structure | Sfp inh | CtBP-E1A blk | gsp agonist | ClpP mod
1 | Cc1cc(N2CCN(c3ccccc3)CC2)n2nnnc2n1 | 7% | -4 | ? | -0.8%
2 | COc1ccc(OC)c(Nc2nc(N)c([N+](=O)[O-])c(NCc3ccccc3)n2)c1 | -3% | 4 | 4%[15.4 µM] | .
3 | O=C(O)CCc1ccc(-c2cccs2)n1CC(=O)Nc1ccccc1C(F)(F)F | -22% | 1 | -7%[15.4 µM] | -13%
4 | Cc1ccc(C(=O)O)cc1NC(=O)CCc1c(C)noc1C | . | -21 | 26% | -1.4%
5 | CN(C)c1ccc(CNC(=O)C2CCN(S(=O)(=O)c3ccc4c(c3)oc(=O)n4C)CC2)cc1 | -1% | 1 | -33% | -0.7%&-13%
6 | O=[N+]([O-])c1ccc(N2CCN(S(=O)(=O)c3ccc(Cl)cc3)CC2)cc1NCC1CCCO1 (configuration not stated) | -8% | -18 | 4% | -1.1%
7 | CC(NC(=O)C(=O)N1CCCCC1)C(c1cccs1)N1CCN(Cc2ccccc2)CC1 (configuration not stated) | 12% | -6 | ? | -3.3%
8 | O=C(Nc1c(C(=O)N2CCCCC2)cnn1-c1ccccc1)c1ccccc1F | 4% | 9 | -35% | 0.0%
9 | COc1cc(-c2nnc(Sc3ccc(C(F)(F)F)cc3[N+](=O)[O-])o2)cc(OC)c1OC | 13% | 6 | -15% | -8.3%
10 | O=C(NCC(=O)N(c1cccnc1)C(C(=O)NC1CCCC1)c1ccco1)c1cccs1 (configuration not stated) | 10% | -5 | -24% | 0.7%
11 | CCN1C(=O)[C@H]2[C@@H](c3ccc(OC)cc3)N[C@]3(CCCN(Cc4cccn4C)C3=O)[C@H]2C1=O | . | 0 | ? | 1.4%
12 | COc1cc2c(cc1OC)C(c1c(-c3c(Cl)cccc3Cl)noc1C)=NCC2 | . | -1 | ? | -7.6%
13 | CCc1ccc(NC(=O)C2CCN(S(C)(=O)=O)CC2)cc1 | 10% | 6 | 5% | 0.3%
14 | CN(C)S(=O)(=O)Oc1ccsc1C(=O)Nc1ccc(Br)cc1 | 0% | 16 | -5%[15.4 µM] | .
15 | CC(C)NC(=O)CSc1nccc(-c2cccs2)n1 | 2% | . | 16% | ?

entry | gsp antagonist | TRPV1 PAM | Menin MLL FP FL
1 | 2% | -1 | 0.7
2 | 23% | 19 | 4.7
3 | ? | 14 | -1.3
4 | . | . | .
5 | 12% | -9 | -4.4
6 | -3% | -7 | 3.4
7 | 1% | 3 | .
8 | 3% | 14 | .
9 | 7% | 1 | 3.1
10 | 3% | -12 | 2.4
11 | . | . | .
12 | . | . | .
13 | 7% | -21 | 3.1
14 | ? | -10 | -2.4
15 | -5% | -2 | 1.6

The list continues:
entry | Structure | Sfp inh | CtBP-E1A blk | gsp agonist | ClpP mod
16 | Cc1nonc1C1CCCN1C(=O)c1cc(COc2ccc(F)cc2Cl)on1 (configuration not stated) | -5% | . | -12% | 1.2%
17 | CCOC(=O)C(=NO)C1=CSC2=NNC(C)(C)N12 | . | -4 | 1% | 0.6%
18 | Cc1ccccc1C(=O)N1CCC(C(=O)N2CCN(Cc3ccc4c(c3)OCO4)CC2)CC1 | . | 6 | -8%[15.4 µM] | -3.6%
19 | CCOc1ccc(OCCNC2CCCC2)cc1 | ? | -3 | 6% | 1.5%
20 | CC(C)C(NC(=O)c1c(F)cccc1F)C(=O)NNC(=O)c1ccccc1 (configuration not stated) | . | 1 | 1% | -1.1%
21 | CC(=O)Nc1cc(OC(=O)c2ccco2)cc(OC(=O)c2ccco2)c1 | 18% | 2 | -4% | -3.4%
22 | O=C(OCc1ccc(Br)cc1)c1cccnc1 | 7% | -2 | -46%[15.4 µM] | -7.2%
23 | COc1cc(CCCN2C(=O)C(=O)NC[C@@H]2Cc2ccc(O)cc2)cc(OC)c1OC | 15% | . | 11% | -1.1%
24 | Cc1nc(NC(=O)C(C)(C)C)sc1-c1csc(N)n1 | . | -3 | -82%[inhibitor] | -4.5%
25 | CCCc1cc(=O)n2[nH]c(-c3ccccc3)cc2n1 | 1% | -1 | 0% | 22µM*
26 | O=C(COc1ccc2c(c1)CCC2)NCc1ccccc1 | 2% | -11 | -4% | -2.0%
27 | O=C(CSc1nnc(-c2cccc(Br)c2)o1)N1CCOCC1 | 6% | 9 | -3% | 1.5%
28 | COCCN1C(=O)N[C@@H](CCc2ccccc2)[C@@H](C(=O)OC)[C@H]1C | -4% | 5 | . | 0.2%
29 | O=C(Nc1ccc(C(=O)NC2CCCCC2)cc1)c1cncc(Br)c1 | -2% | -6 | 4% | 0.6%
30 | CC(C)Oc1ccc(C(=O)OCC(=O)N2CCCc3ccccc32)cc1 | . | 2 | -1% | -2.1%

entry | gsp antagonist | TRPV1 PAM | Menin MLL FP FL
16 | 0% | 1 | 2.6
17 | . | . | .
18 | 0% | . | .
19 | 11% | -6 | 3.8
20 | 11% | . | .
21 | -11% | -5 | 3.4
22 | 3% | -10 | -1.3
23 | 5% | -12 | -0.5
24 | . | . | .
25 | -12% | 13 | 2.7
26 | ? | -2 | 1.2
27 | 15% | 8 | -0.3
28 | 9% | . | -2.1[11.7 µM]
29 | -2% | -1 | -3.1
30 | -10% | 6 | .

In another format: entries from further up.
no.	SMILES	Sfp inh	CtBP-E1A blk	gsp agonist	ClpP mod	gsp antagonist	TRPV1 PAM	Menin MLL FP FL
17	CCOC(=O)C(=NO)C1=CSC2=NNC(C)(C)N12	.	-4	1%	0.6%	.	.	.
27	O=C(CSc1nnc(-c2cccc(Br)c2)o1)N1CCOCC1	6%	9	-3%	1.5%	15%	8	-0.3

Part of the list above, as tab-separated lines.
#	canonical_smiles	Sfp inh	CtBP-E1A blk	gsp agonist	ClpP mod	gsp antagonist	TRPV1 PAM	Menin MLL FP FL
29	O=C(Nc1ccc(C(=O)NC2CCCCC2)cc1)c1cncc(Br)c1	-2%	-6	4%	0.6%	-2%	-1	-3.1
30	CC(C)Oc1ccc(C(=O)OCC(=O)N2CCCc3ccccc32)cc1	.	2	-1%	-2.1%	-10%	6	.

Next section.
entry | Structure | Sfp inh | CtBP-E1A blk | gsp agonist | ClpP mod
31 | c1ccc(-c2cc3ccccc3nc2N2CCCC2)cc1 | -10% | 95 | -24% | 28µM*
32 | CC1CCCN(c2c([N+](=O)[O-])cc(C(=O)O)cc2[N+](=O)[O-])C1 (configuration not stated) | -16% | . | -2% | 1.6%
33 | CSc1ccc(CNCC2CCCO2)cc1 (configuration not stated) | 17% | -9 | -51%[inhibitor] | .
34 | C=C(C)c1cccc(C(C)(C)NC(=O)NCCCn2ccnc2)c1 | 6% | 10 | 15% | 0.4%
35 | COc1ccccc1C(=O)C1CCCN(Cc2cccc3nccnc23)C1 (configuration not stated) | 12% | -1 | -1% | .
36 | O=C(CSc1cccc(C(F)(F)F)c1)NC(=O)c1ccccc1 | -2% | -3 | -1%[15.4 µM] | .
37 | CCOc1cc2[nH]c(=O)n(CCCCCC(=O)NCc3ccco3)c(=O)c2cc1OCC | 14% | -5 | 0% | 22µM*
38 | COC(=O)c1cnn(-c2ccccc2)c1-n1cccc1C=O | -6% | 0 | 1%[15.4 µM] | -1.8%
39 | CC(=O)c1cccc(NC(=O)N2CCN(S(C)(=O)=O)CC2)c1 | 5% | 1 | -27% | -2.4%
40 | C/C(=N\NC(=O)c1cc(-c2cccnc2)nc2ccccc12)c1ccc(O)cc1O | -2% | -2 | -32%[inhibitor] | -2.5%
41 | CCCCN(C(=O)/C=C/c1ccco1)c1c(N)n(CCC)c(=O)[nH]c1=O | -1% | 10 | -1%[15.4 µM] | -1.0%
42 | Cc1cc(NCCc2ccccc2F)n2ncnc2n1 | 22% | 0 | -2%[15.4 µM] | .
43 | NNC(=O)C12CC3CC(C1)CC(n1ncnn1)(C3)C2 | 1% | 1 | -10% | -2.9%
44 | CCOC(=O)c1nn(-c2ccccc2C)c2nc(CC(C)C)c(C#N)c(=O)n12 | 3% | 7 | 12% | 226%
45 | COc1ccccc1N(O)C1CC(=O)N(c2ccc(F)cc2)C1=O (configuration not stated) | ? | -2 | 10% | 2.0%

entry | gsp antagonist | TRPV1 PAM | Menin MLL FP FL
31 | -8% | . | 2.3
32 | -5% | 8 | -0.7
33 | 17% | -3 | -0.6
34 | 5% | 22 | 3.1
35 | 3% | 6 | -1.2
36 | 11% | -10 | 0.7
37 | -2% | 7 | 3.8
38 | -10% | 7 | 0.1
39 | 2% | 10 | 1.6
40 | -8% | 6 | ?
41 | 8% | 4 | 2.9
42 | -10% | 4 | -3.2
43 | 3% | 3 | 2.1
44 | -16% | -8 | 2.2
45 | 1% | 3 | 2.0

Next section
entry | Structure | Sfp inh | CtBP-E1A blk | gsp agonist | ClpP mod
46 | C=CCn1c(SCC(=C)C)nc2c1c(=O)[nH]c(=O)n2C | 15% | 0 | 11% | 1.6%
47 | CC(=O)c1ccc(N2CCN(C(=O)C3CCCN(c4ncnc5c4nc4n5CCCCC4)C3)CC2)cc1 (configuration not stated) | 2% | -21 | 19% | -18%
48 | O=C(CSc1nccn(-c2ccc(Br)cc2)c1=O)NC1CCCC1 | . | 3 | -20%[15.4 µM] | .
49 | CC(=O)NC12CC3CC(C1)CC(C(=O)N1CCN(S(=O)(=O)c4cccc([N+](=O)[O-])c4)CC1)(C3)C2 | . | 1 | 6% | 0.2%
50 | CC(=O)c1ccc(NC(=O)NC2CCCCCCC2)cc1 | 2% | 9 | -74%[inhibitor] | -2.9%
51 | COc1cc(NC(=S)N2CCN(S(=O)(=O)c3ccccc3)CC2)cc(OC)c1 | 6% | -5 | 13% | -0.4%
52 | COc1ccc(C2C(=O)c3ccccc3C2=O)cc1 | 15%&0% | -5 | . | -2.4%

entry | gsp antagonist | TRPV1 PAM | Menin MLL FP FL
46 | 16% | -16 | 1.6
47 | -15% | -7 | -7.0
48 | 5% | 10 | .
49 | -3% | . | .
50 | -7% | -5 | .
51 | -10% | 2 | .
52 | 25% | 17 | 0.6&6.3
